Bioassay records (PubChem BioAssay)
HCMV NEC inh: inhibitors of HCMV UL50-UL53 nuclear egress complex interaction; HTRF UL50-UL53 interaction, normalized percent inhibition; inhibition, % (no concentration beside the values); 190,000 compounds, 0.15% hits;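 active = both replicates at 50% or more, plus weaker picks with an unusually low signal ratio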;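 note: stock transfer was 100 nL into about 20 µL; 0% = negative control wells and 100% = wells with untagged competitor protein; inactives centre near -12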
Sa growth inh: S. aureus growth inhibition. relative growth, % (no concentration beside the values). S. aureus RN4220 growth, OD600, 20 h, 42 °C; active compounds read low. 170,000 compounds, 0.53% hits;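 active = growth at 42 °C up to 50% and 20 or more points under that at 30 °C, or under 10% at both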;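 note: 300 nL library stock went into each well; scaled to the means of positive and negative controls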
GIV-Gai inh: GIV-Galpha-i interaction inhibition; P08753; 210,000 compounds, 0.42% hits; Galpha-i3/FITC-GIV peptide fluorescence polarization, 90 min; active compounds read low; scaled: aluminum fluoride 0%, vehicle 100%; percent of control (FP), % (test concentration not listed);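 active = replicate mean at 85% of control or lower, very high polarization wells dropped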;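 note: lower values mean more displacement of the GIV peptide from Galpha-i3; wells of about 15 µL received 100 nL stock; the first replicate is given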
Target sequence (P08753 whole entry, looked up): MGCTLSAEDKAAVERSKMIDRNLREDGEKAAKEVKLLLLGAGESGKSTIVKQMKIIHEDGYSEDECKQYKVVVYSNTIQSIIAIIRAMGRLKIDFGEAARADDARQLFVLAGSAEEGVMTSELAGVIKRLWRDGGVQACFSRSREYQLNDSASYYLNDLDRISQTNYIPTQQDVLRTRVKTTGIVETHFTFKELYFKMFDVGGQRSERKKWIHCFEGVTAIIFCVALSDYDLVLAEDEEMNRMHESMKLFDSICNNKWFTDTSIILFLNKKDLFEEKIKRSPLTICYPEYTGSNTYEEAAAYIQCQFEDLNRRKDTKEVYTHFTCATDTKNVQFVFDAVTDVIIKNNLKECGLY
Sa growth inh second temp: also measured in Sa growth inh; calls as there; relative growth, %; measured here: growth at 30 °C;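 optical density after 20 h as mean of two plates; 100% = untreated growth and lower means inhibition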
* = called active by the depositor; nt = not tested or not shown; & = joins results of further samples.

Results follow in this order: HCMV NEC inh	Sa growth inh	Sa growth inh second temp	GIV-Gai inh
- COc1ccc(C2=NN(C(C)=O)C(c3cc4cc(C)ccc4nc3Cl)C2)cc1OC (stereo unspecified)
    -7.4	nt	nt	101.8
- CCOC(=O)c1cc2oc(C)cc2n1CC(=O)N(C)C1CCCCC1
    -6.8	118.9	96.6	103.5
- Cc1ccc(-n2cnc3ccccc3c2=O)cc1Cl
    -18.5	108.6	60.8	100.3
- CCCn1c2ccc(Cl)cc2c2nc3ccccc3nc21
    4.5	98.2	96.7	104.8
- O=c1[nH]c2ccc(S(=O)(=O)NCc3ccco3)cc2[nH]1
    -44.9	95.0	88.0	nt
- CCCOC(=O)c1ccc(Nc2nc3ccccc3n3c(C)nnc23)cc1
    nt	118.5	90.8	101.8
- OCC1OC(n2cnc3cncnc32)C(O)C1O (stereo unspecified)
    -17.5	100.5	86.6	nt
- CCOc1ccc(CC2C(=O)Nc3ccccc32)cc1 (stereo unspecified)
    -15.7	nt	nt	101.3
- COCCN(CCOC)S(=O)(=O)c1ccc(C(=O)Nc2nnc(C34CC5CC(CC(C5)C3)C4)s2)cc1
    7.4	nt	nt	105.2
- O=C(Nc1ccc(N2CCOCC2)cc1)C1CCN(c2ccnc(-c3ccc(F)cc3)n2)CC1
    2.6	nt	nt	126.8
- O=C(Cn1ncc2ccc(Cl)cc21)N1CCc2ccccc2C1
    -1.4	97.2	84.0	103.5
- Cc1noc(C)c1COC(=O)CCc1nc2ccccc2s1
    -32.3	104.3	98.9	nt
- CSc1ccc(-c2nc(N)sc2-c2ccccc2)cc1
    -1.6	119.0	80.6	nt
- COC(=O)[n+]1ccc(N2CCOCC2)cc1
    -0.7	76.7	24.2	97.2
- CC(C)(C)C(=O)Nc1ccccc1C(=O)OCc1cc(=O)n2ccsc2n1
    nt	107.0	90.3	103.2
- COc1ccc(C2CC(c3nc4ccccc4[nH]3)=NN2C(=O)CCCl)cc1 (stereo unspecified)
    -26.9	nt	nt	104.2
- COc1ccc(COC(=O)N/C=C/c2ccccc2)cc1
    -1.2	nt	nt	102.8
- O=S1(=O)NC(=NC2CC2)c2ccccc21
    -2.8	98.6	87.2	99.4
- O=C(COc1ccc(Br)cc1)OCc1nnc(-c2ccccc2)o1
    -6.1	115.5	94.4	nt
- CCCCOc1ccc(-c2nn(-c3ccccc3)cc2C2NC(=O)NC(C)=C2C(=O)OC)cc1 (stereo unspecified)
    nt	99.8	93.5	99.3

3 of the entries above in order of their number in Sa growth inh second temp, rising:
Molecule | Sa growth inh second temp
Cc1ccc(-n2cnc3ccccc3c2=O)cc1Cl | 60.8
O=C(COc1ccc(Br)cc1)OCc1nnc(-c2ccccc2)o1 | 94.4
CCCn1c2ccc(Cl)cc2c2nc3ccccc3nc21 | 96.7

An excerpt of these results, in CSV form.
smiles,HCMV NEC inh,Sa growth inh,Sa growth inh second temp,GIV-Gai inh
O=C(Cn1ncc2ccc(Cl)cc21)N1CCc2ccccc2C1,-1.4,97.2,84.0,103.5
COc1ccc(C2=NN(C(C)=O)C(c3cc4cc(C)ccc4nc3Cl)C2)cc1OC (stereo unspecified),-7.4,nt,nt,101.8
O=c1[nH]c2ccc(S(=O)(=O)NCc3ccco3)cc2[nH]1,-44.9,95.0,88.0,nt
COc1ccc(C2CC(c3nc4ccccc4[nH]3)=NN2C(=O)CCCl)cc1 (stereo unspecified),-26.9,nt,nt,104.2
COCCN(CCOC)S(=O)(=O)c1ccc(C(=O)Nc2nnc(C34CC5CC(CC(C5)C3)C4)s2)cc1,7.4,nt,nt,105.2

Gathered by group: those above with a carbonyl joined to an NH by a bond outside any ring (4)
Results follow in this order: HCMV NEC inh	Sa growth inh	Sa growth inh second temp	GIV-Gai inh
- COCCN(CCOC)S(=O)(=O)c1ccc(C(=O)Nc2nnc(C34CC5CC(CC(C5)C3)C4)s2)cc1
    7.4	nt	nt	105.2
- O=C(Nc1ccc(N2CCOCC2)cc1)C1CCN(c2ccnc(-c3ccc(F)cc3)n2)CC1
    2.6	nt	nt	126.8
- CC(C)(C)C(=O)Nc1ccccc1C(=O)OCc1cc(=O)n2ccsc2n1
    nt	107.0	90.3	103.2
- COc1ccc(COC(=O)N/C=C/c2ccccc2)cc1
    -1.2	nt	nt	102.8

Additional structures
Results follow in this order: HCMV NEC inh	Sa growth inh	Sa growth inh second temp	GIV-Gai inh
- Cc1nc2nc3ccccc3nc2n1-c1ccc(F)cc1
    -56.6	92.1	95.6	nt
- Cc1cccc(N2C(=O)CN(C(C)C)C(=O)C2c2ccc(F)cc2)c1C (stereo unspecified)
    -25.4	89.3	85.1	96.5
- CN(C)C(=O)C(OC(=O)c1ccc2ccccc2n1)c1ccccc1 (stereo unspecified)
    -51.0	78.3	82.1	nt
- COc1ccc(OCC(=O)Nc2cc(-c3ccccc3F)nn2-c2ccccc2)cc1
    nt	94.1	86.0	102.3
- Cc1ccc(-c2nnc(SC(C)C(=O)c3ccccc3)o2)cc1 (stereo unspecified)
    1.2	103.6	80.9	nt
- O=c1nc2n3ccsc3ncc-2s1
    -27.9	99.9	93.4	nt
- CCCCC1C(=O)N(c2ccccc2)N(c2ccc(O)cc2)C1=O (stereo unspecified)
    -8.9&3.9	96.1	90.8	nt
- CC1CCN(C(=O)C(Cc2ccccc2)NS(=O)(=O)c2ccc3c(c2)c(=O)n(C)c(=O)n3C)CC1 (stereo unspecified)
    nt	89.9	80.3	100.6
- Cc1cc(C)c(C(=O)CC(N2CCCCC2)C(F)(F)F)c(=O)[nH]1 (stereo unspecified)
    nt	93.6	84.9	104.4
- OCCNc1ncnc2oc(-c3ccccc3)c(-c3ccccc3)c12
    -22.8&-42.0	62.8	56.1	100.6
- COC1=C(N2CCOCC2)C(=O)c2ccccc2C1=O
    -11.4	61.5	52.3	81.8*
- CCOC(=O)c1ccc(Cn2nnc3ccccc3c2=O)cc1
    3.9	82.7	86.2	106.6
- O=C(N1CCCCC1)N1CCN(C(=O)N(c2ccccc2)c2ccccc2)CC1
    -7.3	103.2	90.4	97.1
- CN1C(=O)Cc2cc(S(=O)(=O)N3CCN(c4cccc(C(F)(F)F)c4)CC3)ccc21
    nt	92.5	105.0	104.9
- CCCNC(=O)C1CCC(Cn2c(=O)c3sccc3n(CC(=O)Nc3ccccc3C)c2=O)CC1 (stereo unspecified)
    nt	81.5	90.1	99.8
- Cc1cc(S(=O)(=O)N2CCCC2)c(C)s1
    -3.8	96.3	95.9	nt
- COc1ccc(CNC(=O)CN2C(=O)CSc3ccc(S(=O)(=O)N4CCC(C)CC4)cc32)cc1
    nt	99.8	92.7	96.7
- Cc1sc(NC(=O)c2ccco2)c(CN2CCCCC2)c1C
    -11.9	83.8	95.3	nt
- CCN(C(=O)c1cccc(C(=O)N(CC)c2ccccc2)c1)c1ccccc1
    -5.3	98.9	91.2	nt
- Cc1cc(C)nc(NC(N)=O)n1
    -5.9	98.8	83.8	101.3
- CCCCC(=O)Nc1nc2ccccc2s1
    -10.8	97.7	94.6	102.3
- N#Cc1c(-c2cccs2)nc(SCC(=O)c2ccc(Br)cc2)[nH]c1=O
    -12.6	59.2	44.4	118.1
- O=C(Cn1c(=O)c2cccn2c2ccccc21)NCCCN1CCC(Cc2ccccc2)CC1
    -15.0	nt	nt	99.4
- COc1ccc(NC(=O)CN2C(=O)C(C)(C)c3cc(S(=O)(=O)N4CCCCC4)ccc32)cc1Cl
    nt	118.0	93.0	106.2
- Cc1ccc(-c2nc(CSCC(=O)N3CCCC3)c(C)o2)cc1
    nt	111.8	82.9	101.8
- CN(Cc1ccccc1)C(=O)CN1CCN(S(=O)(=O)c2ccccc2F)CC1
    -30.6	99.4	87.7	nt
- CCOC(=O)C1=C(C)N=c2s/c(=C\c3ccc(OC(C)=O)cc3OC(C)=O)c(=O)n2C1c1cccs1 (stereo unspecified)
    -4.6	nt	nt	118.4
- Cn1c(=O)cc2c3c(cccc31)C(=O)c1ccccc1-2
    -86.0	78.2	81.4	nt
- COc1ccc2c(C)c(CC(=O)N3CCCC3)c(=O)oc2c1OC
    -42.4	98.5	79.5	99.5
- COc1ccccc1NC(=O)c1c(NC(=O)c2ccccc2Cl)sc2c1CCC2
    -27.7	97.1	94.2	100.9
- CCOC(=O)c1c(NC(=O)Nc2ccc(Cl)c(Cl)c2)sc(C)c1C
    nt	79.5	64.9	101.6
- Cc1[nH]c2ccccc2c1CC#N
    -10.9	102.5	86.0	96.8
- c1ccc(Cc2nc3c4cnn(Cc5ccccc5)c4ncn3n2)cc1
    nt	91.9	86.8	98.6
- Cc1nc(-c2ccc(/C(N)=N/O)cc2)cs1
    -5.4	98.6	88.8	105.1
- O=C(Cn1c(=O)c2cccn2c2cccnc21)N1CCC(Cc2ccccc2)CC1
    58.6	nt	nt	107.3
- Cc1cc(C)c2cc(C(=O)NCc3ccccc3)[nH]c2c1
    -19.4	93.3	82.3	97.8
- O=C(NC1CCCC1)C1CCN(c2nc3ccccc3n3cccc23)CC1
    nt	111.1	87.6	109.7
- CCn1c(CNc2cccc(Cl)c2)nnc1SCc1ccccc1
    -18.7	93.3	93.6	100.0
- COc1ccc(N2CCN(C(=O)CN3C(=O)COc4ccc(S(=O)(=O)N5CCC(C)CC5)cc43)CC2)cc1
    -14.2	108.9	84.7	100.2
- COc1ccc(C2CC(c3c(-c4ccccc4)c4cc(Cl)ccc4[nH]c3=O)=NN2C(=O)CCCC(=O)O)cc1OC (stereo unspecified)
    11.4	nt	nt	104.4

Nothing new here: entries from further up.
Results follow in this order: HCMV NEC inh	Sa growth inh	Sa growth inh second temp	GIV-Gai inh
- CCOC(=O)C1=C(C)N=c2s/c(=C\c3ccc(OC(C)=O)cc3OC(C)=O)c(=O)n2C1c1cccs1 (stereo unspecified)
    -4.6	nt	nt	118.4
- Cn1c(=O)cc2c3c(cccc31)C(=O)c1ccccc1-2
    -86.0	78.2	81.4	nt

(listing goes on)
Results follow in this order: HCMV NEC inh	Sa growth inh	Sa growth inh second temp	GIV-Gai inh
- COc1cc(CNC(C)(C)C)cc(Cl)c1OCc1cccnc1
    4.3	105.3	85.3	101.9
- CC(C(=O)Nc1ncccn1)(C(F)(F)F)C(F)(F)F
    -20.4	91.2	91.2	105.5
- CCOc1ccc(-c2nc3c(c(SCC(=O)N4CCCCC4)n2)Cc2cc(C)ccc2O3)cc1
    -33.4	110.3	84.6	105.7
- O=C1CSC(=S)N1C1CCS(=O)(=O)C1 (stereo unspecified)
    -3.7	88.9	60.6	116.2
- COc1ccc(S(=O)(=O)c2c(C)cc(C)n(CC(=O)NCc3ccc4c(c3)OCO4)c2=O)cc1OC
    -13.6	nt	nt	103.6
- CCOc1ccc(NC(=O)CCc2c(C)nc3nc(-c4cc(OC)cc(OC)c4)nn3c2C)cc1
    -8.8	95.2	94.1	103.9
- CCOC(=O)c1cc2nc3sccn3c2s1
    0.0	107.9	50.2	98.7
- CCC1(C(=O)c2ccccc2)C(c2ccc(OC)c(OC)c2)C1(C(=O)OC)C(=O)OC (stereo unspecified)
    -25.5	82.8	84.8	96.7
- Cc1cc(=O)[nH]c(-n2ncc(C#N)c2N)n1
    10.2	80.4	80.0	nt
- C=CCNc1c(Cl)cc(Cl)cc1C(=O)O
    -3.1	103.7	99.3	nt
- Cc1noc(/C=C/N(C)C)c1S(=O)(=O)Nc1cccc(Cl)c1
    nt	105.6	90.0	108.0
- COc1ccc(C2(CNC(=O)C(=O)Nc3ccccc3C)CCCC2)cc1OC
    -5.8	103.4	82.4	103.2
- CCc1ccc(C(=O)C(C)Sc2nnc(-c3ccccc3)o2)cc1 (stereo unspecified)
    -19.1	100.4	87.8	nt
- CC(=O)Nc1ccc(NC(=O)c2nc(S(=O)(=O)Cc3ccc(F)cc3)ncc2Cl)cc1
    -25.3	62.6	69.4	98.0
- O=C(CC(NC1CCCC1)C(=O)O)Nc1ccc(Oc2ccccc2)cc1 (stereo unspecified)
    -6.0	104.3	96.7	109.6
- CCn1c(=O)n(-c2cccc(Cl)c2)c(=O)c2sc3ccccc3c21
    -43.9	93.3	90.6	103.5
